CBX7 inh – blocks human CBX7 binding to H3K27me3 peptide | O95931 | AlphaScreen His6-CBX7 / biotin-H3K27me3 peptide binding; active compounds read low | normalised signal (fraction of DMSO) (test concentration not listed) | 1.1% of 66,000 active | AID 1224903; in the data active = normalised signal below about 0.5;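 note: 100 nL library stock added to about 20 µL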
Target sequence (O95931 whole entry, looked up): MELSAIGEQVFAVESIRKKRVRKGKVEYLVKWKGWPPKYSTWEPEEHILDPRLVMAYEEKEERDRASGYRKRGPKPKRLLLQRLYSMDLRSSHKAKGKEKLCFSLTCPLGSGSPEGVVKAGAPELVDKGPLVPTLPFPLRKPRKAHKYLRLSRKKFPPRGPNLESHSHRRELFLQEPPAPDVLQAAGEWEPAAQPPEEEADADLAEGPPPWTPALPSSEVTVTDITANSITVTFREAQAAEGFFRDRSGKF
CBX7 inh z-score – second read-out of CBX7 inh, no call of its own (marks repeat the call); z-score; measured here: z-score of CBX7 signal; some inactives read as strong as hits; reference of the scale not given here;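 same signal on another scale; lower means less binding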
* marks the source's active call; other numbers are inactive results; & = joins results of further samples.

Fields: CBX7 inh, CBX7 inh z-score
CC1CC(C)CN(C(=O)CN2C(=O)CC(C)(C)S(=O)(=O)c3ccccc32)C1 (stereo not drawn)
  0.97, -0.97
COc1ccc(-c2nc(CN3CCC(C(=O)NC(C)C)CC3)c(C)o2)cc1OC
  1.1, 1.5
Cc1ccc(S(=O)(=O)N(CC(=O)NCCc2ccccc2)c2cccc(Cl)c2)cc1
  1.1, 1.2
Cn1nc(CC(=O)Nc2ccc(F)c(F)c2)c2ccccc2c1=O
  0.88, -1.8
COCCNc1nc(SCC(=O)Nc2cc(C)[nH]n2)nc2ccccc12
  1, 0.006
Cc1cc(C)cc(NC(=O)COc2ccc(N3CC(C(N)=O)CC3=O)cc2)c1 (stereo not drawn)
  1.2, 3.1
Cn1c(C(=O)NCCCN2CCN(c3ccc(F)cc3)CC2)cc2sc(Cl)cc21
  0.81, -3.2
CCC1C(=O)CC(c2ccccc2)NC1c1ccccc1 (stereo not drawn)
  1.2, 3.9
Cc1cccc(CSc2nnc(Cc3cc(=O)[nH]c(=O)[nH]3)n2-c2ccc(Cl)cc2)c1
  0.89, -1.7
CC(C)(C)c1nnc(Nc2ccccc2Cl)[nH]c1=O
  1.3, 0.69
CC1=Nc2cc(C(=O)N3CCN(Cc4ccccc4)CC3)ccc2Sc2ccc(Cl)cc21
  0.87, -3.5
COc1ccc(NC(=O)c2cc(-c3ccc(Br)cc3)on2)cc1
  1.1, 0.072
Cc1nc2cc(-c3ccccc3)nn2c(C)c1CCC(=O)NC1CCN(Cc2ccccc2)CC1
  1.3, 2.7
Cc1oc(-c2ccccc2F)nc1CS(=O)(=O)CC(=O)NCCN(CC(C)C)CC(C)C
  0.79, -3.9
Cc1cc(N2CCN(C)CC2)nc2ccc(NC(=O)CCC(=O)NCc3ccc(F)cc3)cc12
  1, 1.2
COc1ccc(-c2nc(NCc3ccccc3)c3ccccc3n2)cc1OC
  0.88, -2.6
O=c1c(S(=O)(=O)c2ccccc2)cn(Cc2cccc(Cl)c2)c2ccc(F)cc12
  0.95, -0.93
CCC1Oc2ccc(C)cc2N(CC(=O)NCCN2CCc3ccccc3C2)C1=O (stereo not drawn)
  0.86, -1.6
CN1CCN(CCCNC(=O)c2cc3sc(Cl)cc3n2C)CC1
  1, 0.52
COc1cccc(CNC(=O)C2CCCN(C(=O)N(C)C)C2)c1 (stereo not drawn)
  1.1, 1.1
O=C(NCCCN1CCCC1)c1ccc2c(c1)N(Cc1ccc(F)cc1)C(=O)c1ccccc1S2=O (stereo not drawn)
  1.1, 1.5
Cc1ccc(Cc2c(C)nc3c(C(=O)N4CCCC4)c[nH]n3c2=O)cc1
  0.95, -1.2
COc1ccc(-c2nnc(NC(=O)c3ccc(Cl)cc3Cl)s2)cc1OC
  1.2, 0.52
Cc1onc(-c2ccccc2Cl)c1C(=O)N1CCN(c2nc3ccccc3s2)CC1
  0.82, -1.7
O=C(Nc1cccc(-c2nc3ncccc3o2)c1)c1ccccc1Br
  1.1, 1.6
O=C(Cn1nc(-c2ccccc2)c2cc(Cl)ccc21)NCc1ccccc1
  1.1, 2.2
COc1ccc(-c2nnc(NCc3ccccc3)c3ccccc23)cc1
  0.87, -0.35
CCCCN(CCCNC(=O)CN1N=C(c2ccccc2)CCC1=O)c1ccccc1
  0.65, -5.4
COCCCNC(=O)c1ccc2c(c1)nc(C)n2-c1cc(C)ccc1OC
  1, 0.14
CCOc1ccc(CCNC(=O)CN2CC(c3ccccc3)CC2=O)cc1OCC (stereo not drawn)
  1, -0.022

Following part:
Fields: CBX7 inh, CBX7 inh z-score
CC1CCCCC1NC(=O)CN1C(=O)CSc2cc(S(=O)(=O)N3CCCCCC3)ccc21 (stereo not drawn)
  1, 0.22
CCCNC(=O)c1ccc2c(c1)N(Cc1ccccc1)C(=O)c1ccccc1S2(=O)=O
  1.1, 2.3
CCn1c2c(c3cc(OCC(C)C)ccc31)CCCC2=O
  2, 9.4
O=C(O)C1CCCN1c1nc(-c2ccc(Cl)cc2)cs1 (stereo not drawn)
  0.9, -2.7
Cc1oc(-c2ccc(Cl)cc2)nc1CN1CCC(C(=O)N2CCN(c3ccccn3)CC2)CC1
  0.98, -0.85
Cc1ccc(-c2nc(CS(=O)(=O)CC(=O)NCCCSC3CCCCC3)c(C)o2)cc1
  1, 0.023
C=CCn1c(=N)n(CCOc2ccc(Br)cc2)c2ccccc21
  0.96, -0.85
COC(=O)c1ccccc1NC(=O)c1ccccc1Cl
  1.1, 1.8
CCCNC(=O)c1c[nH]c2ccc(S(=O)(=O)N(CC)c3ccc(F)cc3)cc2c1=O
  0.95, -0.44
CCCN1Cc2cccc(C(=O)Nc3ccc(Br)cc3)c2C1=O
  1.1, 2.5
CCC(C)NC(=O)CCNC(=O)Cn1ccc2ccccc2c1=O (stereo not drawn)
  0.96, -0.86
O=C(CS(=O)(=O)c1nc(-c2ccccc2)cn1-c1ccc(Cl)cc1)Nc1ccccc1F
  0.48*, -5.2*
COCC(=O)NCCCc1nc2ccccc2n1Cc1cc(C)ccc1C
  1.1, 1.2
COC(=O)c1ccc(N2C(=O)C3C4C=CC(C4=C(c4ccccc4)c4ccccc4)C3C2=O)cc1 (stereo not drawn)
  0.86, -2.3
Cc1ccc(NC(=O)c2ccccc2)c(NC(=O)c2c(-c3ccccc3Cl)noc2C)c1
  1, 0.63
FC(F)(F)c1cccc(Nc2c(-c3ccsc3)nc3ncccn23)c1
  1.2, 3.6
CCOC(=O)c1c(NC(=O)CCCN2CCC(C)CC2)sc2c1CCCC2
  0.93, -1.9
COc1ccccc1N1CCN(CC(O)COc2c(C)cccc2C)CC1 (stereo not drawn)
  1, 0.55
COc1ccc(N2CCN(CCCNC(=O)CCn3c(=O)[nH]c4ccsc4c3=O)CC2)cc1
  1, 0.82
COC(=O)c1[nH]nc2c1C(=O)N(Cc1ccccc1)C2=O
  1, 1.2
O=C(NCC1CCCO1)c1ccc2c(c1)N(Cc1ccccc1)C(=O)c1ccccc1S2 (stereo not drawn)
  1.1, 2.5
COc1cccc(C2(c3cccc(OC)c3)CC2C(=O)Nc2ccc(Br)cc2)c1 (stereo not drawn)
  1.1, 0.55
COc1ccccc1CNC(=O)c1sc2ncn(CC(=O)N3CCCC(C)C3)c(=O)c2c1C (stereo not drawn)
  1.1, 0.39
CCCCn1c(CCNC(=O)Cc2ccccc2)nc2ccccc21
  0.99, -0.13
O=c1[nH]c(-c2ccccc2)cn1-c1cccc(C(F)(F)F)c1
  0.99, -0.33
CCn1cc(C(C)NC(=O)c2cc(-c3cccc(C)c3)nc3ccccc23)c(C)n1 (stereo not drawn)
  1, 0.39
CCOC(=O)C1CCCN(c2c(NCCCN(C)c3ccccc3)c(=O)c2=O)C1 (stereo not drawn)
  0.92, -2.2
CCOc1ccccc1NC(=O)c1cn(CC(C)C)c(=O)c2cc(OC)c(OC)cc12
  1, 0.29
O=C(NC1CCCCC1)N1CCN(c2ccc(C(F)(F)F)cn2)CC1
  1.1, 2.5
O=C(CSc1nnc(CNC(=O)c2c(F)cccc2Cl)o1)NC1CCCC1
  1, 1.9

Grouped by structure: those above containing an aryl thioether with sulfur outside any ring.
Fields: CBX7 inh, CBX7 inh z-score
COCCNc1nc(SCC(=O)Nc2cc(C)[nH]n2)nc2ccccc12
  1, 0.006
Cc1cccc(CSc2nnc(Cc3cc(=O)[nH]c(=O)[nH]3)n2-c2ccc(Cl)cc2)c1
  0.89, -1.7
O=C(CSc1nnc(CNC(=O)c2c(F)cccc2Cl)o1)NC1CCCC1
  1, 1.9

The main list resumes, starting two compounds before the break.
Fields: CBX7 inh, CBX7 inh z-score
O=C(NC1CCCCC1)N1CCN(c2ccc(C(F)(F)F)cn2)CC1
  1.1, 2.5
O=C(CSc1nnc(CNC(=O)c2c(F)cccc2Cl)o1)NC1CCCC1
  1, 1.9
Cc1ccc(CNC(=O)c2nc(-c3ccccc3F)oc2C)cc1
  0.99, -0.56
Brc1ccc(Nc2ncc(-c3cccs3)s2)cc1
  0.63, -9.1
COc1ccccc1NC(=O)c1sc2ncn(CC(=O)N3CCCC(C)C3)c(=O)c2c1C (stereo not drawn)
  1.1, 0.41
COc1ccc(Nc2nccc(OC)n2)cc1
  1, 0.17
O=C(NCCc1ccccc1)c1c[nH]c2ccc(S(=O)(=O)Nc3ccc(F)cc3F)cc2c1=O
  0.8, -2.6
CCC(C(=O)NCc1cccnc1)n1ncc2ccccc21 (stereo not drawn)
  0.98, -0.54
c1cnc(SCc2cn3cccnc3n2)nc1
  1, 0.27
CC1CCC(C(=O)NC(Cc2ccccc2)C(=O)NCCc2ccccc2)CC1 (stereo not drawn)
  1, 1
Cc1ccc(NC(=O)C2CCCN(S(=O)(=O)c3cccc4cccnc34)C2)cc1C (stereo not drawn)
  0.91, -0.98
O=C(NC1CCCC1)c1cccc(NC2=NC3CS(=O)(=O)CC3S2)c1 (stereo not drawn)
  0.97, -0.35
COc1cccc(-c2nn(C)c3sc(C(=O)NC(C)CCc4ccccc4)cc23)c1 (stereo not drawn)
  1, 1.2
Cc1cc(C)c2nc(N3CCC(C(=O)N4CCN(c5ncccn5)CC4)CC3)sc2c1
  1, 0.2
Cc1c(C(=O)Nc2ccc(F)cc2)sc2ncn(CC(=O)N3CCCC(C)C3)c(=O)c12 (stereo not drawn)
  0.98, -0.12
COc1ccc(-c2nnc(NCc3nc4ccccc4[nH]3)c3ccccc23)cc1
  1&1, 1.3&0.34
CCN1C(=O)c2ccccc2S(=O)(=O)c2ccc(C(=O)N3CCN(Cc4ccccc4)CC3)cc21
  1.1, 1.3
CCOc1ccc(-c2cc(CCCC(=O)NCCc3ccc(OCC)c(OCC)c3)no2)cc1
  1.1, 2.5
COc1ccc(N2Cc3cccc(C(=O)NCCN4CCOCC4)c3C2=O)cc1
  0.96, -1
CC(Sc1nnnn1-c1ccccc1)C(=O)Nc1nccs1 (stereo not drawn)
  0.87, -2
Cc1ccc(OCC(=O)Nc2cccnc2)cc1C
  1.1, 2.9
N#Cc1nc(-c2ccccc2)oc1NCCCn1ccnc1
  0.76, -0.28
Cc1ccc(CS(=O)(=O)CC2Nc3ccc(C(=O)O)cc3NC2=O)cc1 (stereo not drawn)
  1, 0.099
CCOc1ccccc1NC(=O)c1c(NCc2ccc(OC)c(OC)c2OC)sc2c1CCCCC2
  0.86, -7.2
CCCN1CCN(CCCNC(=O)Cn2ncc3c2-c2ccccc2OC3)CC1
  1.1, 2.4
CCOC(=O)c1cc(-c2ccccc2)n(-c2cccc(C(=O)Nc3cc(OC)cc(OC)c3)c2)c1C
  0.88, -3.2
CC(=O)Nc1ccc2c(c1)C(=O)N(c1cccc(C)c1)C2=O
  0.95, -1.3
O=C(NCCN1CCOCC1)c1cc2nc3c(c(C(F)(F)F)n2n1)CCc1ccccc1-3
  1.3, 2.8
COc1ccc(NC(=O)C(NS(=O)(=O)c2ccc3c(c2)CCC(=O)N3)c2ccccc2)cc1 (stereo not drawn)
  0.73, -3.5
CCc1ccccc1N(CC)C(=O)c1cn(CC)c(=O)c2cc(OC)c(OC)cc12
  1, 1.8
O=C(Nc1ccccc1-c1nc2ccccc2s1)c1ccc(Oc2ccccc2)cc1
  1.4, 9.9
Cc1[nH]c2ccccc2c1-c1csc(-c2ccc(O)cc2)n1
  1, 0.051

Whole records from above. Values in the order: CBX7 inh	CBX7 inh z-score
COc1ccccc1N1CCN(CC(O)COc2c(C)cccc2C)CC1 (stereo not drawn) reads 1	0.55
Cc1ccc(S(=O)(=O)N(CC(=O)NCCc2ccccc2)c2cccc(Cl)c2)cc1 reads 1.1	1.2
Cc1cccc(CSc2nnc(Cc3cc(=O)[nH]c(=O)[nH]3)n2-c2ccc(Cl)cc2)c1 reads 0.89	-1.7

(cont.)
Fields: CBX7 inh, CBX7 inh z-score
CCc1cccc(NC(=O)CCc2c(C)nc3c(-c4ccc(F)cc4)c(C)nn3c2C)c1
  1.1, 2.1
CCOc1ccc2nc(N3CCCC(C(=O)NC4CCCCC4C)C3)sc2c1 (stereo not drawn)
  1.1, 0.51
O=C(NC1CCCCC1)N1CCC(N2CCCCC2)CC1
  1, 1.6
CC1CC(C)CN(C(=O)CN2C(=O)COc3ccc(S(=O)(=O)N4CCCC4)cc32)C1 (stereo not drawn)
  0.99, -0.43
Cc1cc(C)cc(NC2=NS(=O)(=O)c3ccccc32)c1
  0.81, -2
CCOCCCNC(=O)CCCCn1c(=O)[nH]c2ccccc2c1=O
  1.1, 0.23
CCOC(=O)c1c(C)n(-c2cccc(C)c2)c2c1cc(O)c1ccccc12
  0.88, -3.4
CCCCNC(=O)c1nc(-c2ccccc2Cl)oc1C
  1, 0.27
COc1ccc(N2C(=O)N(c3cccc(Cl)c3)C3CS(=O)(=O)CC32)cc1 (stereo not drawn)
  1, 0.39
Cc1nn(Cc2ccc(F)cc2)c(C)c1NC(=O)c1cc(C2CC2)on1
  1, 0.16
CCOC(=O)CNc1c(NC2CCCCC2)c(=O)c1=O
  1.1, 2.3
O=C(NC1CCCC1)C(c1ccccc1)N1CCc2ccccc21 (stereo not drawn)
  0.71, -7.2
CCOC(=O)c1cnc2c(C)cccc2c1Nc1ccc(F)cc1
  1.3, 3.3
Cc1ccc(NC(=O)N(C2CCCCC2)C(C)c2cccnc2)cc1C (stereo not drawn)
  0.97, -1.6
Cc1ccc2nc(N3CCC(C(=O)NCCC4=CCCCC4)CC3)[nH]c2c1
  1, 1.9
CCc1cccc(N(CC)C(=O)c2ccc3c(=O)n4c(nc3c2)CCCCC4)c1
  0.88, -0.25
O=C(Nc1ccc(-c2nc3cc(Cl)cc(Cl)c3o2)cc1)c1cc2ccccc2o1
  1.1, 1.9
COc1cccc(-n2ccnc2SCC(=O)Nc2cccc(Cl)c2)c1
  0.87, -2.3
O=C(CN1CCOCC1)Nc1c2c(nc3c1CCC3)CCC2
  1.1, 0.71
COC(=O)c1c(NC(=O)c2ccc(OC)cc2OC)sc2c1CCCCC2
  0.96, -0.92

High-throughput results (PubChem)

This is a subset; the hit share may differ from the screen's.
